Source: PubChem BioAssay
VACV mCherry inh: vaccinia inhibition (mCherry reporter); Vaccinia virus mCherry reporter infection, fluorescence; about a quarter of the inactives have no number; AID 720579; hit rate 0.63% among 310,000; Potency, µM (titrated, usually from 36.5 µM), without a hit: at the top dose activity change, negative = inhibition, actives largely listed as inhibitors; active = well fitted inhibition curve with a large enough effect; inconclusive = small, poorly fitted or top-dose-only effect; inactive = no such curve, though single readings can be large or run the other way; tested in A549 cells; also: nearly all actives have a fitted effect of over 35% in size; inactives centre near -10
VACV Venus inh: vaccinia inhibition (Venus reporter); Potency, µM (doses to about 36.5 µM), without a hit: at the highest dose activity change, negative = inhibition, most hits filed as inhibitors; hit rate 0.46% among 330,000; Vaccinia virus Venus reporter expression, fluorescence; active means well fitted inhibition curve with a large enough effect; inconclusive means small, poorly fitted or top-dose-only effect; inactive means no such curve, though single readings can be large or run the other way; tested in A549 cells; also: nearly all actives have a fitted effect of over 30% in size; inactives centre near -10
* marks the source's active call; other numbers are inactive results; i = inactive; ? = inconclusive; / = not tested or not shown; [ ] = dose if it differs, or a comment. % is scaled to controls: 0 for no effect and ±100 for the full control effect; potency is read from the fitted curve at half-maximal effect.

SMILES	VACV mCherry inh	VACV Venus inh
COc1ccc(CCN2C(=O)COc3ccccc3C2C(=O)NCc2ccccc2)cc1OC (configuration not stated)	34.9%[activator]	-5.5%
Clc1cc(Cl)c2nc(N3CCCC3)sc2c1	-18.8%	-16.9%
CCOC(=O)c1ccc(N2Cc3ccccc3C2=NC(=O)c2cccc([N+](=O)[O-])c2)cc1	-4.9%	-1.7%
Nc1ccn([C@@H]2O[C@H](C(=O)N[C@H](COC=O)Cc3ccccc3)[C@@H](O)[C@H]2O)c(=O)n1	6.0%	1.1%
Cc1ccc(/C=C/C(=O)O)cc1S(=O)(=O)Nc1ccc(C(=O)O)cc1	-8.1%	-0.5%
O=C(Nc1cccc(-c2ccc(N3CCOCC3)nn2)c1)c1ccccc1	-9.2%	0.4%
O=C(CN(Cc1ccco1)C(=O)CNS(=O)(=O)c1ccc(Cl)cc1)NCC1CCCO1 (configuration not stated)	12.8%	-1.8%
O=C(Cc1csc2nc(-c3ccc(F)cc3)cn12)NCc1ccccc1	1.5%	-4.6%
O=S(=O)(NCCCCNS(=O)(=O)c1ccc(F)cc1)c1ccc(F)cc1	-3.4%[7.34 µM]	-6.9%[7.34 µM]
COc1ccc(-c2[nH]n(-c3ccc([N+](=O)[O-])cc3)c(=O)c2C=NCc2ccncc2)cc1	-9.9%	-13.4%
Cc1ccc(NC(=O)CSc2nc(N)cc(=O)[nH]2)cc1S(=O)(=O)N1CCCCCC1	-1.7%	0.0%
Cc1ccccc1C(=O)NNc1ncnc2c1cnn2C	-13.9%	-5.9%

Random excerpt: 7 records from the list.
SMILES	VACV mCherry inh	VACV Venus inh
O=C(Cc1csc2nc(-c3ccc(F)cc3)cn12)NCc1ccccc1	1.5%	-4.6%
O=C(CN(Cc1ccco1)C(=O)CNS(=O)(=O)c1ccc(Cl)cc1)NCC1CCCO1 (configuration not stated)	12.8%	-1.8%
O=C(Nc1cccc(-c2ccc(N3CCOCC3)nn2)c1)c1ccccc1	-9.2%	0.4%
Cc1ccc(/C=C/C(=O)O)cc1S(=O)(=O)Nc1ccc(C(=O)O)cc1	-8.1%	-0.5%
Cc1ccc(NC(=O)CSc2nc(N)cc(=O)[nH]2)cc1S(=O)(=O)N1CCCCCC1	-1.7%	0.0%
Cc1ccccc1C(=O)NNc1ncnc2c1cnn2C	-13.9%	-5.9%
CCOC(=O)c1ccc(N2Cc3ccccc3C2=NC(=O)c2cccc([N+](=O)[O-])c2)cc1	-4.9%	-1.7%

New compounds follow
SMILES	VACV mCherry inh	VACV Venus inh
CCNS(=O)(=O)c1ccc(CCC(=O)N2CCN(c3ccc(OC)cc3)CC2)cc1	i	-10.5%
CCOC(=O)c1cc(S(=O)(=O)N2CCN(c3ccccc3OC)CC2)cn1C	-25.3%	-5.8%
O=C(CCS(=O)(=O)c1cc2c(cc1Cl)NC(=O)CO2)NCc1ccc(Cl)cc1	1.5%	0.5%
C[C@H](O)[C@@H]1C(=O)N2CCc3ccc(N4CCOCC4)cc3[C@@H]2C[C@@H]1N(C)S(=O)(=O)c1ccccc1	i	4.2%
COc1ccccc1NC(=O)CC1S/C(=N/N=C2\CCCc3ccccc32)NC1=O (configuration not stated)	-4.7%	-13.1%
CCCCN(C(=O)c1ccc(S(=O)(=O)N(CC)CC)cc1)c1c(N)n(CCC)c(=O)[nH]c1=O	i	-3.8%
CSc1ncccc1C(=O)Nc1ccc2c(c1)OCCO2	-7.9%	-1.1%
CC1Cn2c(nc3c2c(=O)[nH]c(=O)n3C)O1 (configuration not stated)	/	-9.1%
Cc1nc2nc[nH]n2c(=O)c1CCC(C)C	i	-12.6%
CCOc1cc(CNc2nn[nH]n2)ccc1OCC(=O)NC(C)(C)C	i	-13.0%
CCOc1ccc(-c2c(=O)n(OCc3ccccc3Br)c3ccccc3[n+]2[O-])c(OCC)c1	-19.4%	-20.6%
C=Cn1c(C(=O)O)ccc1-c1ccc(OC)cc1	i	-7.6%
COC(=O)[C@@]12CCCN1[C@H](c1ccc(-c3ccccc3)c(OC)c1)[C@H]1C(=O)N(C)C(=O)[C@H]12	i	-6.2%
O=C(CSc1nnc(NC(=O)c2cccc(F)c2)s1)NCC1CCCO1 (configuration not stated)	i	-15.4%
CSc1cccc(NC(=O)N2CCCC(CNS(=O)(=O)Cc3ccccc3)C2)c1 (configuration not stated)	-13.9%	-3.5%
CN(C)C(=O)CN1C(=O)C2CC=C(Cl)CC2C1=O (configuration not stated)	i	-11.3%
NCC(=O)Nc1ccc(Cl)cc1C(=O)c1ccc[nH]1	?	-16.4%
COc1ccc2nc3sc(C(=O)NCCN4CCc5ccccc5C4)cc3cc2c1	-5.1%	6.4%
COc1cccc(NS(=O)(=O)c2ccc(-c3cc(C)no3)s2)c1	i	-10.0%
COC(=O)CN(C#N)c1nc(SC)nc(N(C)C)n1	-7.9%	-13.9%
C=CCN1C(=O)/C(=C2/Sc3ccccc3N2C)SC1=Nc1ccccc1C	-19.3%	-8.8%
CN1C(=S)SC(N(O)C(=O)Nc2ccc(Cl)c(Cl)c2)C1(C)C (configuration not stated)	-9.4%	?
C=CCNc1nc(SC)nc2ccsc12	/	-8.9%
CC1CCN(C(=O)C(=O)c2cn(CC(=O)N3CCCCCC3)c3ccccc23)CC1	-20.2%	-6.2%
Cc1ccc(S(=O)(=O)N2CCOCC2)cc1NC(=O)CSc1nc(N)cc(N)n1	i	-3.9%
COc1ccc(OC)c(-n2cnc3cc(C(=O)NC4CCCC4)ccc32)c1	-4.3%	-8.3%
Cc1ccc(-c2nn(CCC(=O)O)cc2CCC(=O)O)cc1	-18.1%	-16.0%
CCO[C@H]1OC(C(N)=O)=C[C@@H](c2ccc(Br)cc2)[C@@H]1CCCO	-7.1%	-12.3%
Cc1ccc(C(=O)O/N=C(\N)Cc2cccc3ccccc23)cc1	-15.9%	13.5%
NC(=S)NN=Cc1cc(-c2cccc(N)c2)ccn1	?	?
C/C(=N/OC(=O)CC(C)C)c1cc(-c2ccc(Cl)cc2)no1	-2.1%	-5.5%
COC(C[C@H](O)C[C@H](O)[C@@H](C)OCc1ccccc1)OC	-11.2%	-7.7%
COc1ccc(NC(=O)c2ccccc2)c([N+](=O)[O-])c1	i	-10.3%
COc1ccc(S(=O)(=O)Nc2ccccc2C(=O)NCc2cccnc2)cc1C	-4.6%	-3.1%
CC(C)c1ccc(N=c2c([N+](=O)[O-])nn(-c3ccc4c(c3)OCCO4)n2O)cc1	?	-27.5%
CCOC(=O)c1ccc(NC(=O)c2cccc3c2C(=O)N(CC2CCCO2)C3)cc1 (configuration not stated)	i	-0.8%
Cn1c(N)c(C(=O)COC(=O)/C=C/c2cccc(C(F)(F)F)c2)c(=O)n(C)c1=O	-14.8%	-21.1%
O=C(CN1CCN(C2CCCCC2)CC1)NCCC1=CCCCC1	-2.1%	-9.0%
COC(=O)c1sccc1NC(=O)c1sccc1C	-9.4%	-13.3%
O=C1CS(=O)(=O)C2(C(=O)Nc3ccccc32)N1c1cccc(Cl)c1 (configuration not stated)	8.2%	-2.6%
CCOC(=O)c1ccccc1NC(=O)CN(c1cccc(C)c1C)S(=O)(=O)c1ccccc1	-18.9%	-15.1%
CCCn1c(N)c(N(CCOC)C(=O)c2cc(Cl)nc3ccccc23)c(=O)[nH]c1=O	-17.9%	-7.1%
COc1cccc(NC(=O)c2c(N3CCCC3=O)c3cc(C)ccc3n2C)c1	-6.4%	5.5%
CC(=O)O[C@H]1[C@@H](O)[C@H](O)[C@H](Oc2c(O)c(C)c3c4c2[C@@H](C)CC[C@@H]4[C@@H](C)C[C@H]3C=C(C)C)O[C@H]1C	-1.6%	-19.2%
Cc1nn(Cc2ccccc2)c2sc(C(=O)N3CCN(Cc4ccc5c(c4)OCO5)CC3)cc12	/	?
Cc1cccc(C)c1OCCCN1CCOCC1	-14.3%	-10.2%
CCCSc1cc(=O)n(-c2ccccc2)nc1C(=O)OCC	-22.5%	-17.5%
Cn1ccsc1=NC(=O)c1ccccc1F	-17.8%	0.2%
CN(Cc1cn[nH]c1-c1cc2ccccc2o1)CC1CCOCC1	-0.8%	-11.2%
COc1ccc(C(=O)N2CCOC23CCN(c2ncccn2)CC3)cc1	-3.4%	-12.2%
Cc1ccc(S(=O)(=O)N2CCN(Cc3ccccn3)CC2)cc1	-12.7%	-4.1%
CCOc1ccc(Cl)cc1-c1cc(C(=O)Nc2ccc(F)cc2)[nH]n1	1.6%	-18.8%
CC1CCC(C(C)C)C(OC(=O)Cn2c(-c3ccccc3)[n+](C)c3ccccc32)C1 (configuration not stated)	?	?
Cc1ccc(CNC(=O)Cn2c(=O)ccc3cc(S(=O)(=O)N4CCC(C)CC4)ccc32)cc1	-15.2%	-16.5%
CC(=O)Nc1ccc(C(F)(F)F)cc1Cl	-7.1%	-11.5%
CCN(CC)CCn1c2c(c(SCC(=O)Nc3nccs3)nc1=O)CCCC2	-6.0%	-29.8%
Cc1cc[n+](CC[n+]2ccc(C)cc2)cc1	-12.1%	-3.7%
Cc1cc(C)c(C(=O)OCC(=O)NCc2cccs2)c(C)c1	?	-20.1%
COc1ccccc1CNc1nc2cc(-c3ccc(OC)c(OC)c3)sc2c(=O)n1C	0.8%	-11.5%
Cc1ccc2c(CSc3nnc(N)s3)cc(=O)oc2c1	?	-28.0%
Remaining list, next part:
SMILES	VACV mCherry inh	VACV Venus inh
CCCCNc1c(-c2cccc(Sc3ccc(OC)cc3)c2)nc2ccccn12	?	?
COc1cc2c(=O)c(C(=O)c3ccc(C)c(C)c3)cn(Cc3ccc(F)cc3)c2cc1OC	?	-28.6%
CCOC(=O)N1CCN(C(=O)C2CCN(C(=O)c3cc4sccc4n3CC)CC2)CC1	-12.2%	6.5%
CCOc1cccc(/C=C/c2ccc3cccc(O)c3n2)c1OC	?	-15.2%
Cc1ccc(-c2nnn(CC(=O)N(CC3CCCO3)C(C(=O)NCC3CCCO3)c3ccc(F)cc3)n2)o1 (configuration not stated)	-14.3%[1.46 µM]	-12.9%
COc1ccc2cc(OCC(=O)NNC(=O)Nc3ccc(C(C)=O)cc3)ccc2c1	?	-1.6%
Cc1c(Cl)cccc1NC(=O)Cn1nnc2sc3c(c2c1=O)CCCC3	-11.3%	-7.9%
COc1cnc(-c2ccccn2)nc1Oc1ccc(F)cc1F	?	-28.1%
CC(C)(C)N=C1NC(=NC(C)(C)C)c2ccccc21	?	-23.6%
COc1ccc(CCNC(=O)CSc2cn(CCNC(=O)c3ccc(OC)c(OC)c3)c3ccccc23)cc1OC	-21.8%	-14.2%
O=[N+]([O-])c1cc2oc3c(c2c(C=NCc2ccccc2)c1O)CCCC3	-14.5%	-2.4%
CC(=O)N1CCN(Cc2nc3cc(NC(=O)c4ccccc4Cl)ccc3n2C)CC1	-13.0%	-5.8%
Cc1noc(C)c1S(=O)(=O)N(C)C[C@H]1Oc2c(NC(=O)NC(C)C)cccc2C(=O)N([C@H](C)CO)C[C@@H]1C	i	-8.1%
O=C(O)c1ccc2nc(-c3cc4cc(Cl)ccc4oc3=O)[nH]c2c1	-6.6%	0.2%
CCNC(=S)N1CCN(S(=O)(=O)c2ccc(Cl)s2)CC1	-20.6%	-22.5%
CCS(=O)(=O)c1ncc(Cl)c(C(=O)N2CCN(c3ccc(OC)cc3)CC2)n1	-22.8%	-24.0%
O=C(NCc1ccc(Cl)cc1)C1CCCN(S(=O)(=O)c2cnc[nH]2)C1 (configuration not stated)	1.1%	-9.5%
C[C@@H]([C@@H](O)c1ccccc1)N(C)C(=O)C(N)Cc1ccccc1 (some centres not stated)	i	-1.6%
OCC1CCCN(C(=S)NCCc2ccccc2)C1 (configuration not stated)	-17.9%	-6.7%
COc1ccc(CCNC(=O)C2CCN(Cc3nc(-c4ccc(OC)c(OC)c4)oc3C)CC2)cc1OC	-4.9%	2.3%
COc1ccc(N2Cc3cccc(C(=O)O)c3C2=O)cc1	-13.7%	2.2%
O=C(Cn1ccn(-c2ccc(F)cc2)c(=O)c1=O)Nc1ccccc1C(F)(F)F	-10.1%	-10.9%
Cc1ccc(OCC(=O)N(c2ccc(C)cc2)S(=O)(=O)c2ccc(Cl)cc2)cc1	i	-1.6%
CCN(c1ccccc1)S(=O)(=O)c1nnc(NC(=O)C(C)C)s1	i	-7.2%
CC(C)c1ccc(S(=O)(=O)N2CCC(N3CCN(Cc4ccccc4)C(=O)C3=O)CC2)cc1	-25.4%	-12.8%
O=C1c2ccccc2C(=O)N1Cc1cc(Cl)c(O)c([N+](=O)[O-])c1	i	-0.4%
COc1ccc(/C=N\N=C(N)N)cc1	-20.9%	-13.1%
Cc1c(C(=O)N2CCCC2)c(S(=O)(=O)NCCc2ccccc2)c(C)n1C	-3.3%	-13.6%
O=C(CC1(O)C(=O)Nc2ccccc21)c1ccc2c(c1)OCO2 (configuration not stated)	i	-1.8%
CCCc1nc2c(sc3nc4c(cc32)COC(C)(C)C4)c(=O)o1	-11.6%	-13.1%
O=C(NNC(=O)c1ccccc1O)c1ccc(Cl)c(S(=O)(=O)N2CCc3ccccc32)c1	?	?
Cc1cccc(OCC(=O)NNS(=O)(=O)c2ccccc2F)c1	-9.7%	1.4%
COc1ccc(-c2nc(CS(=O)(=O)CC(=O)NCc3ccc(F)cc3)c(C)o2)cc1	i	-10.7%

Single records, from the list above. Values in the order: VACV mCherry inh, VACV Venus inh
CN(C)C(=O)CN1C(=O)C2CC=C(Cl)CC2C1=O (configuration not stated) reads i, -11.3%
COc1ccc(C(=O)N2CCOC23CCN(c2ncccn2)CC3)cc1 reads -3.4%, -12.2%

The order is random. Share with any hit: about 0.87%.
